Screens from PubChem BioAssay.
PMP22 txn = Cell-based coincidence reporter assay to measure PMP22 gene transcription in S16 Pmp22-F2sN cells - Primary screen; S16 Pmp22-F2sN Schwann cells (luciferase reporters placed in the Pmp22 gene), FLuc/NLuc coincidence luminescence, 24 h; Potency, µM (highest dose often 57.5 µM), inactives show at the highest dose activity change, negative = inhibition, actives largely listed as inhibitors; 43,000 compounds, 2% hits; active = clear falling dose curves in both reporters; inconclusive = both reporters move, but less clearly or upward; inactive = either reporter flat; the % is the NLuc reporter signal; note: % is set by controls: 0 for no effect and ±100 for the full control effect; some results filed as inactive show a strong effect at the top dose
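S16(c9) Schwann cells with FLuc/NLuc coincidence reporter in the Pmp22 3' UTR; compounds pin-transferred, 24 h at 37C. Dual-luciferase read: FLuc first, then NLuc after Stop&Glo, each 10 min at room temperature.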
HTT prom inh = Primary qHTS for Identification of Small Molecule Inhibitors of Huntingtin Promoter Activity | HEK293 HTT promoter firefly luciferase reporter (activity 0% = vehicle and -100% = no light), 24 h | Potency, µM (titrated, usually from 57.5 µM), inactives show at the top dose activity change, negative = inhibition, usual class: inhibitors | 48,000 compounds, 0.93% hits; active = well fitted inhibition curve with a large enough effect; inconclusive = small, poorly fitted or top-dose-only effect; inactive = no such curve, though single readings can be large or run the other way; note: nearly all actives have a fitted effect of over 50% in size
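HEK293 luciferase promoter-reporter cells (2,500/well) plated 24 h, then compounds added at up to 57.5 uM final for 24 h at 37 °C. Firefly luminescence by Dual-Glo, normalized to vehicle (0%) and zero RLU (-100%).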
Starred values were filed as active, the others as inactive; ? = inconclusive; . = no result given; [ ] = another dose, or the depositor's remark. Potency is the fitted concentration of half-maximal effect.

SMILES	PMP22 txn	HTT prom inh
Cc1ccc(C(=O)NCc2ccc(F)cc2)cc1NC(=O)c1nsc2ccccc12	-16.3%	-10.0%
O=C(NCCS(=O)(=O)N1CCN(c2ccccc2F)CC1)C(c1ccccc1)c1ccccc1	3.9%	-25.2%
COc1cc(C)c(C=CC(C)=CC=CC(C)=CC(=O)O)c(C)c1C	.	14.9%
COc1cc(O)c2c(c1)C(=O)c1cc(C)cc(O)c1C2=O	.	5.4%[25.2 µM]
Cc1ccc(C2C=C(c3ccccc3)Nc3nc(NS(=O)(=O)c4ccccc4)nn32)cc1 (centres undefined)	-9.8%	-5.8%
CCOc1ccc(CCNS(=O)(=O)c2c(C)nc3sc(C)cn3c2=O)cc1OCC	-7.1%	-2.4%
COc1cccc(N2CCN(C(=O)c3c(C)oc4ncnc(N5CCCCC5)c34)CC2)c1	-1.5%	-22.6%
CCCCCCNc1nc2c(c(=O)n(C)c(=O)n2C)n1Cc1cccc(C)c1	?	-21.8%
CCOC(=O)C1CCCN(C(=O)C2CCN(S(=O)(=O)c3c(C)noc3/C=C/c3ccccc3F)CC2)C1 (centres undefined)	?	-18.5%
CCOc1ccccc1CNC(=O)CN1C(=O)CCc2cc(S(=O)(=O)N3CCCCC3)ccc21	-25.9%	?
Cc1ccc(N2CC(NC(=O)c3ccc(S(=O)(=O)N4CCOCC4)cc3)CC2=O)cc1 (centres undefined)	12.3%	-30.5%
CCC(=O)N1CCc2cc(Br)cc(S(=O)(=O)CCC(=O)Nc3ccc(CC)cc3)c21	17.5%	2.9%
CCc1nn(CC(=O)N(CC)Cc2ccccc2)c(=O)c2cc3occc3n12	?	-24.7%
CCOC(=O)c1[nH]c2ccccc2c1NC(=O)c1c(F)cccc1F	-7.1%	-3.6%
COc1ccc(-c2onc(C)c2C)cc1S(=O)(=O)NCc1cccs1	?	-17.0%
CCc1nnc(NC(=O)CSCc2cc(=O)c3ccc(C)cc3[nH]2)s1	-3.0%	-0.2%
COc1cc2c(C(=O)N3CCN(c4cc(Cl)ccc4C)CC3)cn(CC(C)C)c(=O)c2cc1OC	-7.3%	?
COCCCn1c(=O)c2sccc2n2c(CCCC(=O)Nc3cccc(OC)c3)nnc12	?	-24.3%
Cc1cc(OCC(O)CN2CCN(c3cccc(Cl)c3)CC2)ccc1Cl (centres undefined)	?	-10.5%
Cc1ccc(NC(=O)Cn2c(SCc3cccc(F)c3)nc3ccncc32)c(C)c1	?	-18.3%
CCOC(=O)N1CCN(C(=O)CN(c2cccc(Cl)c2)S(=O)(=O)c2ccccc2)CC1	7.5%	-17.0%
COc1ccc(NC(=O)c2oc3ccc(S(=O)(=O)N(C)C4CCCCC4)cc3c2C)cc1Cl	5.7%	?
CC(C)Oc1ccc(CNC(=O)c2cc3ccccn3n2)cc1	?	25.9%
CC(=O)Nc1ccc(S(=O)(=O)N(Cc2ccccc2)Cc2ccccc2)cc1	-12.1%	-28.8%
CCOC(=O)c1cccc(NC(=O)c2cc(CN3CCCC3)on2)c1	4.9%	14.4%

(list continues)
SMILES	PMP22 txn	HTT prom inh
O=C(Nc1ccc(Br)cc1)c1cccc(C(=O)Nc2ccc(Br)cc2)c1	?	-23.8%
Cc1cccc(C(=O)Nc2cccc(C(=O)OCc3cc(=O)n4nc(C(C)C)sc4n3)c2)c1	12.9µM*	5.2%
COc1ccc(C=Cc2cc(OC)c(OC)c(OC)c2)cc1NC(=O)[C@H](N)CO	.	-26.0%
COc1ccccc1-c1nc2n(n1)C(c1ccccc1Cl)C(C(=O)Nc1cccnc1)=C(C)N2 (centres undefined)	-13.5%	-10.8%
CCOC(=O)c1ccc(CN(Cc2ccc(F)cc2)S(=O)(=O)c2cc(C(=O)Nc3ccccc3CC)ccc2F)cc1	-5.0%	?
O=C(NCc1ccccc1)c1ccc2c(c1)nc1n2CCOC1	-4.6%	22.0%
CC(C)Oc1cccc(C(=O)Nc2ccc3oc(-c4ccccc4)nc3c2)c1	?	-25.5%
COc1ccc(CNC(=O)C2CCN(S(=O)(=O)c3ccc4nc5c(c(C(=O)O)c4c3)CC(C)CC5)CC2)cc1 (centres undefined)	15.8%	-17.6%
COc1ccccc1/C=C/c1nc(C#N)c(NC2CCCCC2)o1	-0.8%	7.3%
COc1ccc(OC)c(C2c3c(oc4ccc(C)cc4c3=O)C(=O)N2CCCN(C)C)c1 (centres undefined)	-1.2%	-12.5%
CCS(=O)(=O)N1CC(=O)N(c2ccc(Cl)cc2C)C(C)(C(=O)NC2CCCCCC2)C1 (centres undefined)	?	-1.2%
COc1ccc(Cn2nnc3c(=O)[nH]c(C4CCCN(C(=O)c5ccc(C)cc5)C4)nc32)cc1 (centres undefined)	-28.0%	-24.3%
COc1ccc2c(c1)CCc1c(C(=O)Nc3cnn(Cc4ccc(Cl)cc4Cl)c3)noc1-2	-7.7%	-11.5%
COc1c(C)cnc(Cn2cnc3c(Cl)nc(N)nc32)c1C	.	?
O=C(Nc1cccc(Cl)c1)c1csnn1	3.2%	3.4%
CCOc1ccccc1NC(=O)Cn1cnc2sc(C)c(S(=O)(=O)N3CCC(C)CC3)c2c1=O	4.1%	-12.2%
Cc1ccc(CNc2ncnc3onc(-c4ccc(F)cc4)c23)cc1	?	-15.7%
COc1ccc(OC)c(S(=O)(=O)Nc2cc3c(cc2C)n(C)c(=O)c(=O)n3C)c1	-27.0%	-5.5%
COc1ccc(-n2ccnc(NCc3ccc(C)cc3)c2=O)cc1OC	?	-29.3%
COc1ccc(-c2nc(CSCC(=O)N3CCN(c4ccc(F)cc4)CC3)c(C)o2)cc1	?	12.6µM*
CC(NC(=O)c1c2c(nc3ccccc13)C(=O)N(C1CCCCC1)C2)c1ccccc1 (centres undefined)	-10.5%	-12.3%
COc1ccc(OC)c(C2C(C(=O)Nc3ccc(C)cc3C)=C(C)Nc3c(C(=O)Nc4ccc(F)cc4)cnn32)c1 (centres undefined)	-1.4%	3.3%
COc1ccc(Cl)cc1Nc1nc2ccc(C(=O)c3ccccc3)cc2n2cnnc12	-3.3%	44.1%[activator]
CC1CN(C(=O)Nc2ccc(C(=O)NCc3ccccc3F)cc2)c2ccccc2S1 (centres undefined)	13.4%	-34.6%
COc1ccc(OC)c(NC(=O)C2CCN(S(=O)(=O)c3ccc(C)cc3)CC2)c1	2.9%	-14.8%

In a second layout: results already given
Results follow in this order: PMP22 txn | HTT prom inh
CCOc1ccccc1NC(=O)Cn1cnc2sc(C)c(S(=O)(=O)N3CCC(C)CC3)c2c1=O
  4.1% | -12.2%
Cc1ccc(CNc2ncnc3onc(-c4ccc(F)cc4)c23)cc1
  ? | -15.7%
COc1ccc(OC)c(S(=O)(=O)Nc2cc3c(cc2C)n(C)c(=O)c(=O)n3C)c1
  -27.0% | -5.5%

Of the compounds above, four contain two or more sulfur atoms.
SMILES	PMP22 txn	HTT prom inh
CCOc1ccc(CCNS(=O)(=O)c2c(C)nc3sc(C)cn3c2=O)cc1OCC	-7.1%	-2.4%
COc1ccc(-c2onc(C)c2C)cc1S(=O)(=O)NCc1cccs1	?	-17.0%
CCc1nnc(NC(=O)CSCc2cc(=O)c3ccc(C)cc3[nH]2)s1	-3.0%	-0.2%
CCOc1ccccc1NC(=O)Cn1cnc2sc(C)c(S(=O)(=O)N3CCC(C)CC3)c2c1=O	4.1%	-12.2%

Remaining list, next part:
SMILES	PMP22 txn	HTT prom inh
COc1ccc(F)cc1NC(=O)C1CCN(c2nc(-c3ccc(OC)c(OC)c3)no2)CC1	-5.1%	37.9%[activator]
Cc1cc(CCCOc2c(C)cc(-c3noc(C(F)(F)F)n3)cc2C)on1	.	4.3%
CCOc1ccccc1-n1c(C)nc2cc(C(=O)O)ccc21	-4.5%	-1.0%
O=C(NCc1ccccc1Cl)c1nnc(Cc2cccc(F)c2)o1	-13.2%	-18.6%
COc1ccc(C2=CC(c3ccc(N(C)C)cc3)n3nnnc3N2)cc1 (centres undefined)	-18.7%	-5.3%
Cc1ccc(CSC2=Nc3ccccc3C3=NC(CCC(=O)NCc4cccs4)C(=O)N23)c(C)c1 (centres undefined)	-9.5%	-5.5%
COc1cc2c(cc1OC)C(COc1ccc3c(C)cc(=O)oc3c1)N(C(=O)c1ccccc1F)CC2 (centres undefined)	?	-4.0%
CCc1nnc(SCC(=O)Nc2ccc(OC)c(OC)c2)c2cc3occc3n12	?	8.7%
O=C(NCC(c1cccnc1)N1CCc2ccccc2C1)C(=O)Nc1ccccc1F (centres undefined)	2.1%	-15.5%
CC(C)c1ccc(NC(=O)Cn2c(=O)n(CCc3ccccc3)c(=O)c3ccccc32)cc1	?	-6.3%
O=S(=O)(NCc1ccccc1)c1ccc2[nH]c3c(c2c1)CCCCC3	-8.3%	?
Cc1ccc(Cl)cc1NC(=O)c1ccc(-c2nc(CSc3ccccc3)c(C)o2)cc1	?	?
Cc1ccc(Cn2cc3c(n2)-c2c(oc(C(=O)Nc4ccc(F)cc4F)c2C)CC3)cc1	?	-1.0%
Cc1nnc(N2CCN(c3ccc(Cl)cc3)CC2)c2c1nnn2Cc1ccc(F)cc1	?	-11.5%
COc1cc(C2NC(=O)NC(C)=C2C(=O)Nc2cc(C)cc(C)c2)ccc1O (centres undefined)	1.4%	-2.1%
N#Cc1ccccc1CSc1nnc2ccc3ccccc3n12	5.3%	9.9%
COc1cccc(CNC(=O)CSc2c3c(nc4ccc(Cl)cc24)CCCC3)c1OC	?	-12.6%
COc1ccccc1-c1nnc(SCC(=O)c2ccc(Cl)cc2)n1-c1ccccc1	?	?
Cc1ccc2[nH]c(=O)c3cc(C(=O)NCc4cccc(Cl)c4)sc3c2c1	?	-6.2%
COC(=O)c1c(NC(=O)CCCOc2ccc(C)cc2)sc2c1CCCC2	-17.5%	-10.3%
Cc1ccc(C)c(NC(=O)Cn2nnc(C(=O)NCc3ccccc3Cl)c2N)c1	?	?
Cn1cnc(S(=O)(=O)N2CCC(C(=O)NCc3ccccc3Cl)CC2)c1	-7.4%	-5.3%
CCOC(=O)CC(NC(=O)c1cc2cc(Br)cc(OC)c2oc1=O)c1ccc(OC)cc1 (centres undefined)	-0.3%	-9.7%
CCCCn1cc(S(=O)(=O)c2ccc(OC)cc2)c(=O)c2cc(F)c(N3CCOCC3)cc21	?	3.4%
CCOCN(C(=O)Cn1c(C)nc2ccccc21)c1c(C)cccc1CC	?	-8.0%

(further entries)
SMILES	PMP22 txn	HTT prom inh
COc1cccc(N2CCN(C(=O)c3ccc4c(=O)n(CCc5ccccc5)c(=O)[nH]c4c3)CC2)c1	-27.9%	?
O=C(CSc1ncc2c(n1)-c1ccccc1N(Cc1ccc(F)cc1)S2(=O)=O)c1ccc(Br)cc1	-21.0%	-10.7%
Nc1c(C(=O)Nc2ccccc2Br)sc2nc(-c3cccs3)ccc12	?	?
O=C(/C=C/c1ccc(Cl)cc1)Nc1nc(-c2cccs2)ns1	-26.6%	?
COc1ccc(-c2cc3nc(C)c(CCC(=O)NC4CCCCC4)c(C)n3n2)c(OC)c1	?	-14.5%
CCc1ccc(-n2nc3ccc(NC(=O)c4cc5ccccc5o4)cc3n2)cc1	-0.7%	-4.7%[11.5 µM]
Cc1ccc(C(=O)Nc2ccc(CN3CCN(C)CC3)c(C(F)(F)F)c2)cc1C#Cc1cnc2cccnn12	.	?
COc1ccccc1CNC(=O)CCCn1c(=O)c2ccccc2n(Cc2ccccc2C#N)c1=O	?	-9.6%
O=S(=O)(NCCc1nnc2ccc(SCc3ccccc3Cl)nn12)c1ccccc1	?	-20.3%
O=C(CC1N=C2c3ccccc3N=C(SCc3ccccc3F)N2C1=O)NCc1cccs1 (centres undefined)	1.5%	30.4%
Cc1ccccc1NC(=O)c1ccc(F)c(S(=O)(=O)N2CCc3ccccc3C2)c1	12.2%	-41.2%
O=C(NCCc1ccccc1)c1ccc2c(c1)N(Cc1ccccc1Cl)C(=O)c1ccccc1S2	12.5%	6.3%
O=C(Cn1c(=O)oc2cc(S(=O)(=O)N3CCCC3)ccc21)NCc1ccc(Cl)cc1	-87.2%	-29.2%
COCCn1c(=N)c(C(=O)NCC2CCCO2)cc2c(=O)n3ccccc3nc21 (centres undefined)	-11.2%	-0.4%
COc1cc(NC(=O)c2cc3cc4cc(OC)ccc4nc3o2)cc(OC)c1	-2.2%	-1.4%
CCc1ccccc1NC(=O)C1=C(C)C(=O)OC12CCCCCC2	12.9%	-2.3%
CCc1ccccc1NC(=O)CCNS(=O)(=O)c1ccc2c(c1)CCCC(=O)N2	-47.6%	-5.9%
COc1cccc(CNC(=O)CN(c2ccc(C(C)C)cc2)S(=O)(=O)c2c(C)noc2C)c1	-12.6%	-27.5%
O=C(NCC(c1ccco1)S(=O)(=O)c1cccs1)c1ccc(F)c(F)c1 (centres undefined)	-39.2%	-12.1%
Cc1ccccc1CN1C(=O)c2ccccc2Sc2ccc(C(=O)NCCc3ccccc3)cc21	-44.6%	-29.4%
COc1cc2nc(Cl)nc(N)c2cc1OC	.	-4.1%
CCC(Cc1ccccc1)NC(=O)Cn1ncc2c3ccccc3n(Cc3ccc(F)cc3)c2c1=O (centres undefined)	-25.8%	-22.9%
CCc1ccccc1NC(=O)c1sc2nc3c(cc2c1N)CN(Cc1ccccc1)CC3	?	?
CCc1ccccc1NS(=O)(=O)c1ccc2[nH]cc(C(=O)N3CCCCC3)c(=O)c2c1	-42.1%	1.8%
